# Screens as filed in PubChem BioAssay.
# ALR inh = inhibitors of human ALR sulfhydryl oxidase, primary screen, biochemical, H2O2 detection, HRP-luminol luminescence, single point; FAD-linked sulfhydryl oxidase ALR (Homo sapiens), P55789; inhibition, % (no concentration beside the values); 290,000 compounds, 3.8% hits; purified ALR, DTT oxidation;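 active = mean and each replicate at 75% or more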;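 also: stock transfer was 7.5 nL into about 7.5 µL; 0% = neutral wells and 100% = wells with inactivated enzyme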
# Target sequence (P55789 whole entry, looked up): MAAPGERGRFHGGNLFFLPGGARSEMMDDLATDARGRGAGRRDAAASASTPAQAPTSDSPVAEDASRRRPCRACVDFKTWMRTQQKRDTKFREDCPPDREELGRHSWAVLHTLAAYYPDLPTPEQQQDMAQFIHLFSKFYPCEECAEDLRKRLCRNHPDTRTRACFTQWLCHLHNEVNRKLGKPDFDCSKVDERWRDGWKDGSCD
# Vif TR-FRET = inhibitors of Vif binding to APOBEC3G peptide, primary screen, biochemical, TR-FRET, GST-Vif 1-94, biotin-A3G peptide, dose response retest (AID 1117319) | TR-FRET GST-Vif / biotin-A3G peptide binding; higher % means a stronger effect; test concentration not given here; strong numbers were not always called active | inhibition, %; hits with a dose series show IC50 in µM | 260,000 compounds, 0.57% hits;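 active = above the screen mean plus three standard deviations and confirmed in dose response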;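 also: Vif residues 1-94 fused to GST binding biotinylated APOBEC3G peptide 110-148; 0% = full assay without inhibitor and 100% = GST in place of GST-Vif; retest series ran down from 100 µM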
# FGF22 binding = binders of human FGF22 protein, primary screen, FGF22 synaptogenesis inhibitor project, biophysical, thermal shift, single point; recombinant FGF22 thermal shift, SYPRO orange fluorescence; percent of sucrose octasulfate shift, DMSO zero; 340,000 compounds, 1.5% hits; calls only at 9.99 µM; Fibroblast growth factor 22 (Homo sapiens), Q9HCT0; AID 651658, 2012;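 active = melting point raised past a set limit in the mean and every replicate; three in four hits are not shown here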
# Target sequence (Q9HCT0 whole entry, looked up): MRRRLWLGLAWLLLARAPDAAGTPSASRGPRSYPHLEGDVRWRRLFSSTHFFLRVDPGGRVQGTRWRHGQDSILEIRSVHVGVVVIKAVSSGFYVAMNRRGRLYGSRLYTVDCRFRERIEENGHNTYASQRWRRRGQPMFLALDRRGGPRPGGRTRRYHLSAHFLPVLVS
# Ecoli rRNA inh = reduced GFP signal of wild-type E. coli, primary screen, bacterial rRNA inhibitor project, GFP/RFP fluorescence, OD600, single point. GFP signal change (wild-type ribosome), % (test concentration not listed). 350,000 compounds, 1.6% hits. E. coli WT GFP vs humanized-ribosome RFP mutants, 24 h; hits give low values; DMSO median 0, no signal -100. AID 720706, 2013;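 active = significant combined selectivity score with lowered wild-type GFP, culture density cut under 30%, mutant RFP and density less affected; inactive = any of these conditions unmet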; also: one replicate is shown; some compounds called inactive have numbers as strong as hits
# MLL AF4-AF9 inh = inhibitors of AF4 peptide binding to AF9, primary screen, biochemical, AlphaScreen, biotin-AF4 peptide, FLAG-AF9, single point; Protein AF-9 (Homo sapiens), P42568; inhibition, % at 10 µM; 350,000 compounds, 0.47% hits;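 active = every replicate reaching a set inhibition limit, whatever the replicate mean, cut at about 25% in these data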;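 also: 0% = plate neutral control median and 100% = total signal loss; the record names both 10 and 1 µM as test concentration; the first replicate is given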
# Target sequence (P42568 whole entry, looked up): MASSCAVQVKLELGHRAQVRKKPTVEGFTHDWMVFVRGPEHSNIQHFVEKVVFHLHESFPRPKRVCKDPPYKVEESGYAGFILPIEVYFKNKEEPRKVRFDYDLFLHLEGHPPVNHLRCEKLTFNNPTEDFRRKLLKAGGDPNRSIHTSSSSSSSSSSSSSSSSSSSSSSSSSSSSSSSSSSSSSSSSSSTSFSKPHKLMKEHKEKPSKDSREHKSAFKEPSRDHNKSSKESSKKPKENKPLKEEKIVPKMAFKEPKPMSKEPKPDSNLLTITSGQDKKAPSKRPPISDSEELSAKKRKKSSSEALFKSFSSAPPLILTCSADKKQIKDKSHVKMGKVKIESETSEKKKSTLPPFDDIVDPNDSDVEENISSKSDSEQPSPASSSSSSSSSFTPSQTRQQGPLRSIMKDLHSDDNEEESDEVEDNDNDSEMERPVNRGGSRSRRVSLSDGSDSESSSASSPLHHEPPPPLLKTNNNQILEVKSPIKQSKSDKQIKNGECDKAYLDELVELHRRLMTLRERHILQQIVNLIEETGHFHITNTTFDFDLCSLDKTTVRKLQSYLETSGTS
# HNF4A DNA FP = change in binding of human HNF4A to DNA, primary screen, biochemical, fluorescence polarization, FITC-DNA | 1 h | Hepatocyte nuclear factor 4-alpha (Homo sapiens), P41235 | 360,000 compounds, 0.3% hits | activity change, % at 10 µM; in the data active = activity change above about 30%, passing the limit was not always enough;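 also: controls were the assay level and a saturating level of protein; the project sought stronger binding though the title names inhibitors; some compounds called inactive have numbers as strong as hits; positive values seem to mean higher polarization but the record does not say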
# Ecoli growth = E. coli growth inhibition, primary screen, OD600. Escherichia coli growth, 23 h; hits give low values. OD600 absorbance (concentration not given with the values). 330,000 compounds, 0.21% hits. AID 1053175, 2014;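 active = OD600 absorbance below the run mean of sample wells minus 3.6 SD, in any replicate, cut at about 0.56 in these data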;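 also: stock transfer was 300 nL into about 60 µL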
# Ecoli rRNA inh OD600 = recorded beside Ecoli rRNA inh, whose call it bears; OD600 change, %; measured here: OD600 growth;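 optical density of the mix in the first replicate; 0 = DMSO median and -100 = no signal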
# Ecoli rRNA inh RFP = second read-out of Ecoli rRNA inh, no call of its own (marks repeat the call); RFP signal change, %; measured here: RFP humanized mutant strains;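 first replicate; 0 = DMSO median and -100 = no signal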
# * marks the source's active call; other numbers are inactive results; i = inactive; · = not tested or not shown; & = joins results of further samples.
canonical_smiles	Ecoli growth	Ecoli rRNA inh	FGF22 binding	Ecoli rRNA inh RFP	ALR inh	Vif TR-FRET	MLL AF4-AF9 inh	Ecoli rRNA inh OD600	HNF4A DNA FP
Cc1noc(C)c1S(=O)(=O)Nc1ccc2c(c1)C(=O)N([C@H](C)CO)C[C@H](C)[C@H](CN(C)C(=O)CCC(F)(F)F)OCCCC[C@H](C)O2	·	-3	i	0.0	·	·	2.3	-4	·
CCN1C(=O)[C@H]2[C@@H](c3ccc(C)cc3)N[C@]3(CCCN(Cc4ccc(Cl)cc4)C3=O)[C@H]2C1=O	·	-20*	i	5.8*	·	-2%	-2.1	-9.9*	-9.4
CCn1c(SCC(=O)NC2CCCc3ccccc32)nnc1-c1cccs1 (configuration not stated)	0.77	·	·	·	-16	-5%	·	·	-0.5
Cc1[nH]c2ccccc2c1C(=O)COC(=O)C1CCC(=O)N1 (configuration not stated)	0.72	·	·	·	-16	0%	·	·	0.1
CCc1ccc(NC(=O)c2cc(C)nn2-c2ccccc2)cc1	0.66	4	i	-1.5	·	-1%	0.5	1	3.5
COCCCNCCCCOc1ccc(C)cc1[N+](=O)[O-]	0.67	-2	i	-2.9	-4	-7%	-7.9	-4	-1.3
COc1ccccc1NC(=O)CSCC(=O)N1c2ccccc2CCc2ccccc21	0.72	-19	i	-0.1	-26	3%	1.3	-18	-2.3
CCN(CC)S(=O)(=O)c1cccc(C(=O)OCC(=O)c2ccc3c(c2)NC(=O)CO3)c1	0.67	·	·	·	-23	-7%	·	·	2.3
O=C(COC(=O)c1ccc(O)cc1)NC(=O)NCc1ccccc1	0.67	0	i	4.4	·	2%	2.0	-5	-5.6
Cc1cccc(-n2c(C)cc(C=C(C#N)C#N)c2C)c1	0.75	·	·	·	0	0%	·	·	0.3
COc1ccc(CNC(=O)COC(=O)c2ccc3ncsc3c2)cc1OC	0.68	·	i	·	-1	-8%	-0.8	·	3.6
Nc1nc(NCCOCCO)nc(NCc2ccccc2)c1[N+](=O)[O-]	0.7	5	i	3.3	-14	1%	-1.7	5	2.5
CC(NC(=O)Cc1ccc(F)cc1)C(c1cccs1)N1CCN(C)CC1 (configuration not stated)	0.66	6	i	-5.2	-4	23%	-4.2	8	-0.1
Cn1cc(CCNCc2cn[nH]c2-c2ccc(-c3ccccc3)cc2)cn1	0.65	3	i	0.1	-8	-3%	·	-15	2.3
CCc1cc(-c2cnnn2Cc2ccc3ccccc3c2)ccc1-c1cn(CC(C)C)nn1	·	-4	i	12	·	1%	-5.5	13	-3.3
CC1CCN(c2cc(N)c(Cl)cc2[N+](=O)[O-])CC1	0.66	·	·	·	1	-1%	·	·	-1.6
COc1ccc(-c2cc(=Nc3c(C)n(C)n(-c4ccccc4)c3=O)c3ccccc3o2)cc1	0.67	-14	i	-6.0	36	·	22	-7	0.1
CCCNC(=O)Nc1ccc2c(c1)C(=O)N(C)[C@@H]1CC[C@H](CC(=O)OC)O[C@@H]1CO2	·	-2	i	-4.1	·	·	0.3	-3	·
C=CCC[C@H](Cc1ccc(F)cc1)C(=O)OC[C@H](Cc1c[nH]c2ccccc12)NC(=O)[C@H](CC=C)CC(=O)NCCO	·	3	i	-4.4	4	·	2.6	4	1.0
COc1cccc(OC)c1C(=O)NC(C)C12CC3CC(CC(C3)C1)C2 (configuration not stated)	0.72	·	·	·	-1	60%	·	·	-2.3
C[C@@H]1CN([C@H](C)CO)C(=O)Cc2cc(NS(=O)(=O)c3ccc(Cl)cc3)ccc2O[C@H]1CN(C)C	·	1	i	-0.3	·	·	-2.6	-2	·
CC(C)NC(=O)C1Cc2c(-c3ccc4c(c3)OCO4)ccnc2O1 (configuration not stated)	·	3	i	0.5	·	·	-2.0	-1	-6.3
COc1cc(OC)c(OC)cc1/C=N/n1c(-c2n[nH]c3c2CCC3)n[nH]c1=S	·	3	i	3.3	·	3%	-3.4	10	0.6
O=C(NCc1cccnc1)c1ccc(COc2ccc(Cl)cc2Cl)o1	0.61	-26	i	-3.9	·	17%	1.8	-34	-0.7
CCOC(=O)c1ccc(N2C(=O)C=CC2=O)cc1	0.71	·	·	·	35	-3%	·	·	2.9
O=C(NCc1ccccc1)C1CCCN(S(=O)(=O)c2ccc(Br)cc2)C1 (configuration not stated)	0.71	0	i	-0.5	-5	·	-3.8	29	2.8
Cc1noc(C)c1C(=O)N1CCCc2ccccc21	0.74	·	·	·	-7	1%	·	·	0.1
COc1ccc(B(O)O)c(CN2CCN(C(=O)OC(C)(C)C)CC2)c1	·	-1	i	-1.9	·	·	-0.9	4	-1.3
O=C(CNc1cc(S(=O)(=O)N2CCOCC2)ccc1N1CCCC1)Nc1ccc(Cl)cc1F	·	-10	i	11	·	-11%	3.3	-10	0.2
C[C@@H]1CNC(=O)c2c(C(=O)Nc3cccc(Cl)c3)ncn21	·	-1	i	2.8	·	-4%	-2.8	-15	3.7
C=C1C(C(=O)Nc2ccc(F)cc2)C1C(=O)Nc1ccc(F)cc1 (configuration not stated)	0.69	7	i	1.5	8	-9%	-1.8	7	0.0
C[C@H]1CN([C@@H](C)CO)C(=O)c2c(c3ccccc3n2C)-c2ccccc2CO[C@@H]1CN(C)S(=O)(=O)c1ccc(F)cc1	·	3	i	0.8	·	·	2.8	5	·
Cc1ccc(Nc2nc(NCc3ccccc3)nc3ccsc23)c(C)c1	·	-35	i	-19	·	·	1.2	-72	3.1
O=C([C@H]1[C@H](CO)[C@H]2Cn3c(cccc3=O)[C@H]2N1Cc1cocn1)N1CCC(Cc2ccccc2)CC1	·	2	i	0.7	·	·	-12	9	·
CC1CCN(C(=O)COC(=O)CCc2c[nH]c3ccccc23)CC1	0.66	1	i	2.6	-2	-2%	-1.4	3	1.0
COc1ccc(OCc2cc(C(=O)N3CCN(CC(=O)N(C)C)CC3)no2)c(Cl)c1	0.67	0	i	1.3	24	·	0.9	0	2.9

# An excerpt from above in order of length of the SMILES, descending.
canonical_smiles	Ecoli growth	Ecoli rRNA inh	FGF22 binding	Ecoli rRNA inh RFP	ALR inh	Vif TR-FRET	MLL AF4-AF9 inh	Ecoli rRNA inh OD600	HNF4A DNA FP
O=C(CNc1cc(S(=O)(=O)N2CCOCC2)ccc1N1CCCC1)Nc1ccc(Cl)cc1F	·	-10	i	11	·	-11%	3.3	-10	0.2
O=C(NCc1ccccc1)C1CCCN(S(=O)(=O)c2ccc(Br)cc2)C1 (configuration not stated)	0.71	0	i	-0.5	-5	·	-3.8	29	2.8
CC1CCN(C(=O)COC(=O)CCc2c[nH]c3ccccc23)CC1	0.66	1	i	2.6	-2	-2%	-1.4	3	1.0

# Additional compounds
canonical_smiles	Ecoli growth	Ecoli rRNA inh	FGF22 binding	Ecoli rRNA inh RFP	ALR inh	Vif TR-FRET	MLL AF4-AF9 inh	Ecoli rRNA inh OD600	HNF4A DNA FP
C[C@@H]1CCCCO[C@@H](CN(C)S(=O)(=O)c2ccccc2)[C@H](C)CN([C@@H](C)CO)C(=O)c2cc(NC(=O)CCCN(C)C)ccc2O1	·	3	i	-0.8	·	·	-0.2	7	·
CC(C)C#Cc1ccc([C@@H]2[C@H](C#N)N(C(=O)c3cccc(F)c3)[C@H]2CO)cc1	·	-57	i	-14	·	·	0.7	-71	·
CCc1nnc(NC(=O)CC(C)c2ccccc2)s1 (configuration not stated)	0.66	-4	i	-1.1	·	·	-0.4	1	-5.0
CCN(C[C@@H]1[C@@H](c2ccccc2)[C@H](CO)N1S(C)(=O)=O)C(=O)C1CC1	·	1	i	-0.9	·	·	0.9	5	·
Cc1ccc(-c2nnc(OCc3nc4ccccc4n3C)c3ccccc23)cc1	0.72	0	i	14	-5	·	14	7	3.3
CCOC(=O)N(C)C[C@@H]1OCc2ccccc2-c2c(n(C)c3ccccc23)C(=O)N([C@H](C)CO)C[C@H]1C	·	8&-2	i	4.6&-3.1	·	-8%	0.5	2&-1	-4.0
O=C1c2ccccc2C(=O)N1CC1=NCCc2ccccc21	0.72	·	·	·	0	-6%	·	·	-0.9
CN1OC[C@@H]2CN(C(=S)NCCc3ccccc3)[C@H](c3ccc(-n4ccnc4)cc3)C[C@@H]21	·	1	i	5.8	·	·	4.0	-3	-0.3
O=C(O)c1ccccc1-c1ccccc1C(=O)Nc1ccc2c(c1)oc(=O)c1ccccc12	·	-47	·	-8.0	·	-3%	-17	-61	-1.1
Cc1occc1C(=O)N(Cc1nc(-c2ccccc2)no1)C(C)C	0.73	-2	i	1.3	-42	·	1.2	-7	1.9
CN1[C@@H]2c3ccc(C4=CCCC4)c(=O)n3C[C@@H]2[C@@H](CO)[C@@H]1C(=O)NC1Cc2ccccc2C1	·	2	i	6.5	·	·	-0.1	0	·
CC1(C(=O)NS(=O)(=O)C2CC2)CCN(C(=O)c2cccc(OC(F)(F)F)c2)C1 (configuration not stated)	·	2	i	-1.1	·	·	-0.5	0	0.6
COc1cc(/C=N\NC(=O)c2ccc(-c3ccccc3)cc2)cc(OC)c1OC(C)=O	·	-10	i	2.1	-2	2%	-1.4	2	3.0
Cc1cccc(S(=O)(=O)N2CCCCN3[C@H](CO)[C@@H](c4ccc(C#CC(C)C)cc4)[C@@H]3C2)c1	·	4	i	7.0	·	·	-8.6	22	·
O=C(C[C@H]1C/C=C\C[C@H](Cc2ccc(F)cc2)C(=O)O[C@@H](c2ccccc2)CNC1=O)N[C@H](CO)Cc1ccccc1	·	6	i	3.2	0	·	0.9	12	-1.5
O=C(NCc1ccco1)c1ccc(CNc2c(N3CCCCC3)c(=O)c2=O)cc1	0.75	7	i	0.0	3	0%	-4.7	5	-1.1
COc1ccc(/C=N/NC(=O)c2cc(C3CC3)[nH]n2)cc1OC	·	2	i	-1.5	·	4%	-8.5	9	2.3
C[C@H](CO)N1C[C@H](C)[C@@H](CN(C)C(=O)C2CC2)Oc2ncc(C#CC(C)(C)O)cc2C1=O	·	5	i	0.7	·	·	-2.6	0	·
COc1ccc(S(=O)(=O)N2CCC(C(=O)NCc3ccc(C)cc3)CC2)cc1	·	-4	i	3.3	-10	·	-2.1	3	-1.8
COc1ccc(CN(C)C[C@@H]2Oc3ccc(NC(=O)C4CC4)cc3C(=O)N([C@H](C)CO)C[C@H]2C)cc1	·	0	i	-0.8	·	·	-2.4	-1	·
CCn1c(=O)c(C(=O)CN2CCN(S(=O)(=O)c3cc(C)ccc3C)CC2)c(N)n(Cc2ccccc2)c1=O	0.7	-5	i	34	-5	-5%	2.4	-16	-1.0
CCOC(=O)c1c(NC(=O)COC(=O)CCCOc2ccc(OC)cc2)sc(C(=O)N(C)C)c1C	0.64	5	i	5.0	·	·	0.7	1	-0.6
Cc1ccc(NC(=S)Nc2ccc(OC(F)F)c(Cl)c2)cc1Cl	0.69	-60	i	-24	·	0%	-4.9	-82	4.1
COc1ccccc1C(=O)NCCC(=O)N1CCN(S(=O)(=O)c2ccccc2C(F)(F)F)CC1	0.69	-1	i	-0.4	·	-8%	-0.3	-1	-3.3
COc1ccccc1C(=O)NCCN1CCC(n2c(=O)[nH]c3ccccc32)CC1	·	3	i	0.4	·	·	0.1	9	0.4
O=C(c1ccc(Cl)cc1Cl)c1ncc(C(F)(F)F)cc1Cl	0.66	·	·	·	-1	-2%	·	·	0.1

# An excerpt; the hit share may differ from the screen's.
